High-throughput results as filed in PubChem.
TRPML1 ag = agonists of human TRPML1 channel; Q9GZU1; TRPML1-expressing cells, Ca2+ dye fluorescence, FDSS; host cell line not named in the record; reference of the full effect not given here; activation, % (no concentration beside the values); 410,000 compounds, 0.12% hits; AID 624414; in the data active = activation above about 50%; inconclusive = about 30% to 50%; inactive = below about 30%; note: 0% is about no effect; the text of the record puts the active cut at 80%
Target sequence (Q9GZU1 whole entry, looked up): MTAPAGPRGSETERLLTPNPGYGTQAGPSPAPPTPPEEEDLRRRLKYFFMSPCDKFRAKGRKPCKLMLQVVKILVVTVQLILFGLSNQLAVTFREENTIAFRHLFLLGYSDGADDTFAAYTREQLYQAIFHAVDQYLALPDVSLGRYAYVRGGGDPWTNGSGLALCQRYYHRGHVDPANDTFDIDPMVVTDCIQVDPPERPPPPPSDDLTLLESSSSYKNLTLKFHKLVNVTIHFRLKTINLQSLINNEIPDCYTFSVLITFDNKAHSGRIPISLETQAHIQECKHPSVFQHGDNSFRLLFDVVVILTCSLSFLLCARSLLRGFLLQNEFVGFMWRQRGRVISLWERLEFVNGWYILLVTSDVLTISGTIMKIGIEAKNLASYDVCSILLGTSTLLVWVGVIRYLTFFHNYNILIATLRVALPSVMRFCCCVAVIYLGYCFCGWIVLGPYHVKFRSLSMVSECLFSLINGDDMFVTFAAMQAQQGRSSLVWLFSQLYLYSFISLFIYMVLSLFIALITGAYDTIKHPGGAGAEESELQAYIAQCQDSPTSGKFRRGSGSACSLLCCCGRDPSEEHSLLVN
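Agonist activity was taken from a 110 s kinetic Ca2+ dye read on the FDSS after pinning compounds onto TRPML1-DL cells. The cells were seeded at 1,500/well with Tet inducer, incubated about 16 h, then dye-loaded at room temperature.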
D2 potentiator = potentiates the human D2 dopamine receptor allosterically | potentiation, % (test concentration not listed) | AID 624464 | 360,000 compounds, 0.23% hits | DiscoveRx D2 beta-arrestin cells, luminescence, 90 min; 100% = 57 uM dopamine signal; active = potentiation of 50% or more; inconclusive = 30% to 50%; inactive = 30% or less;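 note: compound concentration not given in the record; tested on top of an EC20 dose of dopamine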
Target sequence (P14416 whole entry, looked up): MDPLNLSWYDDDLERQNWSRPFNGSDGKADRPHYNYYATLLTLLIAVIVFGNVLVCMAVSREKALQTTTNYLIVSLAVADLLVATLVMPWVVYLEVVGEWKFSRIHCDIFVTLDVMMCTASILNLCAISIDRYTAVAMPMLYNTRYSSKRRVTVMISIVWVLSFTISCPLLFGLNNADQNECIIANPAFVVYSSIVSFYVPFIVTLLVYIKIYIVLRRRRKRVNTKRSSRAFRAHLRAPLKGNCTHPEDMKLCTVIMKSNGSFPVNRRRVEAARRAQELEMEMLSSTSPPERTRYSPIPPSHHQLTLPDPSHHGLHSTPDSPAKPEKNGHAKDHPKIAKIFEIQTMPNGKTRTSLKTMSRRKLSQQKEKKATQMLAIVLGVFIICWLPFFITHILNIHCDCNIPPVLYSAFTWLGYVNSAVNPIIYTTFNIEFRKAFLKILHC
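PathHunter beta-arrestin assay in DiscoveRx D2 cells. Compounds were added with an EC20 of dopamine (50 nM final) for 90 min at 37 deg C. Luminescence was read 1 h after detection reagent, with 57 uM dopamine as the EC100 control.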
PINK1 modulator = changes PINK1 expression; Potency, µM (doses to about 76.6 µM), inactives show at the highest dose activation (PINK1 increase), actives largely listed as activators; 410,000 compounds, 0.2% hits; PINK1 immunofluorescence, high-content cytometry, 24 h; active = well fitted activation curve with a large enough effect; inconclusive = small, poorly fitted or top-dose-only effect; inactive = flat fitted curve, though single readings scatter; cell line not stated here;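 note: potency is the fitted concentration of half-maximal effect; % of control where 0% means no effect; nearly all actives have a fitted effect of over 65% in size; a mitochondrial uncoupler was the plate control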
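Readout is PINK1 immunofluorescence, quantified alongside mitochondrial, cell and nuclear markers by laser-scanning microplate cytometry. Cells from a stable line were exposed to compound titrations (5 concentrations) for 24 hours, with CCCP controls.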
CtBP-E1A blk = inhibitors of CtBP/E1A interaction; AID 651724; 340,000 compounds, 0.49% hits; activity change, % (concentration not given with the values); AlphaScreen GST-E1A/His-CtBP binding, 1536-well; stronger effect = lower value; control for the full effect not named in the record; in the data active means activity change below about -65%; inconclusive means about -30% to -65%; inactive means above about -30%; note: % is set by controls: 0 for no effect and ±100 for the full control effect
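In 5 uL wells, 23 nL compound meets equimolar GST-E1A and His-CtBP (5X stock 125 nM each) for 2 h, 37 °C. Beads (5X, 50 ug/mL) then 1 h, 37 °C, dark.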
D2 ag = agonists of human D2 dopamine receptor (beta-arrestin); 360,000 compounds, 0.084% hits; activation, % (concentration not given with the values); DiscoveRx PathHunter D2 beta-arrestin, luminescence, 90 min; 100% = 57 uM dopamine signal; P14416; in the data active = activation above about 40%; inconclusive = about 15% to 40%; inactive = below about 15%; note: the text of the record calls up to 30% inactive
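DiscoveRx PathHunter D2 beta-arrestin cells (2,100/well) attached overnight, then compound-stimulated 90 min at 37 C in HBSS/10 mM HEPES/0.1% Tween-20 buffer; beta-galactosidase complementation read by luminescence after 1 h at ambient temperature. Dopamine 57 uM final (EC100) as control.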
Six1-Eya2 blk = Six1/Eya2 interaction inhibition | Q15475+O00167 | AlphaScreen GST-Six1/His-Eya2 binding, biochemical; stronger effect = lower value; control for the full effect not named in the record | activity change, % (no concentration beside the values) | 360,000 compounds, 0.56% hits | AID 651725; in the data active = activity change below about -65%; inconclusive = about -30% to -65%; inactive = above about -30%; note: % is set by controls: 0 for no effect and ±100 for the full control effect
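AlphaScreen with GST-Six1 and His-Eya2 (5X mix: 250 nM and 500 nM), glutathione donor and nickel acceptor beads; buffer 50 mM Tris pH 8.0, 300 mM NaCl, 1 mM TCEP; 1 h at 37 C in the dark.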
An asterisk follows results filed as active; u = inconclusive; x = not tested or not shown; & = joins results of further samples; [ ] = remark or other dose.

SMILES | TRPML1 ag | D2 potentiator | PINK1 modulator | CtBP-E1A blk | D2 ag | Six1-Eya2 blk
COc1cc(/C=C2\SC(N)=NC2=O)ccc1OCC(=O)Nc1ccc(C)cc1 | 0.8 | 11 | 0.4% | -7 | 3.3 | -13
CN(CC(=O)Nc1ccccc1[N+](=O)[O-])Cc1ccc(Br)cc1 | 4.1 | -5 | 7.7% | -9 | -1.4 | u
CCC(=O)Nc1cc(C(F)(F)F)ccc1N1CCCC1 | -0.3 | -2 | -0.4% | 0 | -1.1 | 6
COc1cccc(/C=N/NC(=O)C(=O)NCc2cccnc2)c1O | 0.9 | -4 | 0.8% | -92* | -0.3 | -89*
CN1CCN(NC(=O)c2ccc(Cl)c(S(=O)(=O)Nc3ccc(Cl)cc3)c2)CC1 | -0.1 | -21 | 0.3% | x | -3.9 | -4
CSCC[C@H](NC(=O)NCc1ccccc1F)C(=O)O | 0.5 | -5 | 2.0% | -1 | -0.6 | 12
O=C(NC1CCCCC1)c1nc(C2CCNCC2)oc1-c1ccccc1 | -0.4 | -4 | 0.4% | -1 | -1.2 | -8
Cc1cccc(NC(=O)CN2C(=O)CNC2=O)c1 | 0.4 | -14 | 0.6% | 4 | -5.5 | 6
O=C(c1coc(=O)c2ccccc12)N1CCN(Cc2ccccc2)CC1 | -0.2 | -4 | -0.9% | 8 | -4.7 | 0
CC(C)n1nnnc1C1c2ccccc2C(=O)N1C1CC1 (stereo not given) | -0.6 | x | -0.2% | -21 | x | 7
Cc1nnc(SCC(=O)Nc2cc(S(C)(=O)=O)ccc2Cl)n1Cc1ccccc1 | 0.8 | -4 | 1.5% | 5 | -0.8 | 6
CCCCC1(C(=O)OCC)CC(CSC(=N)N)OC1=O (stereo not given) | -0.3 | -1 | 0.8% | 1 | -1.0 | 8
CCc1ccc2nc(N(CCN(C)C)C(=O)c3ccc4ccccc4c3)sc2c1 | 0.1 | -31 | 10% | -1 | -2.2 | -15
C=CCOC(=O)C1=C[C@H](c2coc3ccccc3c2=O)C[C@H](OCCCCO)O1 | 0.5 | u | 0.7% | 5 | 7.0 | 1
CCC(C)NS(=O)(=O)c1ccc(S(=O)(=O)N(CCc2ccc(OC)c(OC)c2)Cc2cccs2)cc1 (stereo not given) | 3.6 | 7 | 1.0% | -3 | 3.8 | -5
O=C(CSc1nc(-c2ccccc2)c(-c2ccccc2)[nH]1)N1CCN(S(=O)(=O)c2ccccc2)CC1 | -0.9 | 18 | -1.6% | -12 | -0.6 | -24
O=C(Nc1ccc(Oc2ccccc2)nc1)C1CCCCN1Cc1ccco1 (stereo not given) | 1.4 | -9 | 1.5% | -12 | -1.6 | -9
Cc1ccc(CCNC(=O)CN2C(=O)COc3ccc(S(=O)(=O)N4CCCCC4)cc32)cc1 | -1.0&2.6 | -8 | 3.9%&1.8% | 1 | 5.4 | 2
CCn1cc(C(=O)OCC(=O)c2ccc(Cl)cc2)c(=O)c2ccc(C)nc21 | 4.0 | 3 | 1.6% | 3 | -2.7 | -12
CCOc1ccccc1N1CCN(CC(=O)N(CC(C)C)c2c(N)n(CC(C)C)c(=O)[nH]c2=O)CC1 | -1.2 | -11 | 1.1% | -3 | -4.8 | 2
O=C1c2ccccc2N(Cc2ccc(Cl)cc2)C2=NCCN12 | 4.2 | -2 | -1.7% | 3 | -3.8 | 3
O=C(O)c1ccccc1C(=O)O | -0.1 | -2 | 2.6% | 3 | -6.0 | 27
COc1ccc2c(c1)C(=O)C(=O)N2 | 0.5 | -43 | 6.3% | -1 | -14 | -5
O=C(CN1C(=O)NC2(CCCCCCC2)C1=O)NCc1ccccc1 | 0.2 | -2 | 1.2% | 5 | -1.5 | 1
C=CCn1c(=O)c2ccccc2n2c(SCc3cc(=O)n4ccsc4n3)nnc12 | -0.1 | -18 | -0.5% | -4 | -2.7 | -12
O=C1c2ccccc2C(=O)N1Cc1nc2ccccc2c(=O)n1Cc1ccco1 | 0.1 | 3 | 7.6% | 7 | -0.4 | 3
O=C(O)Cn1nc(-c2ccccc2)oc1=O | 0.6 | -13 | -1.1% | -2 | -0.6 | 11
CCc1ccc(/C(C)=N/NC(=O)c2ccc(-n3cnnn3)cc2)cc1 | -1.0 | 2 | 3.9% | x | 1.2 | 2
C/C=C/c1cccc(-c2nc(C(=O)NC3CCC3)cc3c2[C@@H](CCO)N(S(=O)C(C)(C)C)C3)c1 (stereo not given in full) | 0.0 | -5 | 1.6% | -3 | -3.4 | 1
COc1ccccc1CC(NC(C)=O)C(=O)NC1CCN(S(=O)(=O)c2ccc(NC(C)=O)cc2)CC1 (stereo not given) | 0.7 | -4 | -0.7% | 2 | 2.8 | -3

A few values from above:
PINK1 modulator result of `Cc1nnc(SCC(=O)Nc2cc(S(C)(=O)=O)ccc2Cl)n1Cc1ccccc1` stands at 1.5%
TRPML1 ag result of `CC(C)n1nnnc1C1c2ccccc2C(=O)N1C1CC1` (stereo not given) stands at -0.6

Quoted at random: 7 compounds from above
SMILES | TRPML1 ag | D2 potentiator | PINK1 modulator | CtBP-E1A blk | D2 ag | Six1-Eya2 blk
C/C=C/c1cccc(-c2nc(C(=O)NC3CCC3)cc3c2[C@@H](CCO)N(S(=O)C(C)(C)C)C3)c1 (stereo not given in full) | 0.0 | -5 | 1.6% | -3 | -3.4 | 1
O=C(CN1C(=O)NC2(CCCCCCC2)C1=O)NCc1ccccc1 | 0.2 | -2 | 1.2% | 5 | -1.5 | 1
C=CCn1c(=O)c2ccccc2n2c(SCc3cc(=O)n4ccsc4n3)nnc12 | -0.1 | -18 | -0.5% | -4 | -2.7 | -12
COc1ccc2c(c1)C(=O)C(=O)N2 | 0.5 | -43 | 6.3% | -1 | -14 | -5
COc1ccccc1CC(NC(C)=O)C(=O)NC1CCN(S(=O)(=O)c2ccc(NC(C)=O)cc2)CC1 (stereo not given) | 0.7 | -4 | -0.7% | 2 | 2.8 | -3
CCc1ccc(/C(C)=N/NC(=O)c2ccc(-n3cnnn3)cc2)cc1 | -1.0 | 2 | 3.9% | x | 1.2 | 2
O=C(O)c1ccccc1C(=O)O | -0.1 | -2 | 2.6% | 3 | -6.0 | 27

(further entries)
SMILES | TRPML1 ag | D2 potentiator | PINK1 modulator | CtBP-E1A blk | D2 ag | Six1-Eya2 blk
Cc1ccccc1NC(=O)Cn1nnc(-c2ccc(N3CCOCC3)cc2)n1 | -0.3 | -6 | 11% | 15 | -1.6 | 1
Cc1c(C(=O)/C=C/N(C)C)nnn1-c1ccc(Cl)cc1C#N | 1.0 | -4 | 3.8% | -5 | -1.5 | 0
CC(=O)Nc1cc2nc(C)n(Cc3ccccc3)c2nc1C | -0.5 | 4 | 0.6% | 5 | -0.8 | 5
CC1(C(=O)N2Cc3ccccc3C2)CCN1C(=O)Cc1ccccc1 (stereo not given) | 0.3 | -5 | 1.0% | -11 | -4.0 | 11
CN1CC(COCc2ccccc2)Oc2ccccc2S1(=O)=O (stereo not given) | -0.6 | x | -0.4% | 3 | -1.0 | 0
CCc1ccc2c(CN3CCc4cc(OC)c(OC)cc4C3)cc(=O)oc2c1 | -1.1 | -18 | 0.8% | 1 | 0.4 | -13
CC1CN(C(=O)CN2C(=O)NC3(CCCCCC3)C2=O)CC(C)O1 (stereo not given) | -0.6 | -5 | -3.8% | 7 | 0.1 | 5
O=C1c2ccccc2C(=O)c2c1ccc(C(=O)N1CCCCC1)c2NCCO | 1.0 | -7 | 7.0% | 5 | -0.4 | -4
Cc1ccc(C(=O)OCC(=O)NC2CCCCC2)o1 | 0.1 | -4 | 1.7% | 1 | 1.6 | 6
CCN1CCN(C(=O)NC(c2ccc(C)c(F)c2)C(Cl)Cl)CC1 (stereo not given) | -0.4 | -19 | 4.6% | 3 | -3.3 | 10
CC1CCCN(C(=O)COC(=O)Cc2c[nH]c3ccccc23)C1 (stereo not given) | 0.9 | -4 | -2.3% | -11 | 3.5 | 3
Cc1ccc(NC(=O)C2CCCN(c3ncnc4c3nc3n4CCCCC3)C2)nc1 (stereo not given) | -0.8 | 3 | -0.4% | -8 | -2.0 | -3
CCCCN(C(=O)Cc1cccc(F)c1)c1c(N)n(CCC)c(=O)[nH]c1=O | 0.0 | 0 | -0.6% | 10 | 0.4 | 5
NCCCC[C@H]1CN=C(N)N1CCCCC1CCCCC1 | -0.6 | -24 | 0.3% | 0 | -1.9 | 4
COc1ccc(C(c2nnnn2Cc2cccs2)N2CCN(c3ccccc3F)CC2)cc1OC (stereo not given) | 0.4 | -17 | -1.3% | -9 | -1.7 | -9
CN1C2CCC1CC(OC(=O)C(CO)c1ccccc1)C2 (stereo not given) | -0.3 | 5 | 1.1% | 0 | -2.0 | -3
CC1=Nn2c(nc3sc4c(c3c2=O)CCCC4)SC1 | -0.8 | 1 | -0.7% | -11 | -6.3 | -16
Cc1ccc2nc(SCC(=O)Nc3cc(C(F)(F)F)ccc3N3CCOCC3)[nH]c2c1 | 1.9 | -12 | 0.3% | -4 | -0.7 | 8
O=C(/C=C/c1cccs1)Nc1ccc([N+](=O)[O-])cc1 | 0.5 | -29 | 3.0% | -6 | 0.3 | -1
CCCNC(=O)c1cc(SC)ccc1Cl | 0.6 | -1 | -2.9% | 4 | -2.0 | 0

Single records, from the list above.
`O=C(/C=C/c1cccs1)Nc1ccc([N+](=O)[O-])cc1` in the list: TRPML1 ag: 0.5; D2 potentiator: -29; PINK1 modulator: 3.0%; CtBP-E1A blk: -6; D2 ag: 0.3; Six1-Eya2 blk: -1
`CN1C2CCC1CC(OC(=O)C(CO)c1ccccc1)C2` (stereo not given) in the list: TRPML1 ag: -0.3; D2 potentiator: 5; PINK1 modulator: 1.1%; CtBP-E1A blk: 0; D2 ag: -2.0; Six1-Eya2 blk: -3

The list continues.
SMILES | TRPML1 ag | D2 potentiator | PINK1 modulator | CtBP-E1A blk | D2 ag | Six1-Eya2 blk
CCc1nnc(NC(=O)CSc2nnc(Cc3ccccc3)o2)s1 | -0.5 | 0 | -0.6%[38.3 µM] | 5 | 1.0 | 0
CC/C(=N\O)c1c(O)c2c(n(-c3ccccc3)c1=O)CCCC2 | 1.0 | -33 | 2.2% | -9 | -8.0 | 10
CCc1nc2ccc(C(=O)NCCOc3ccc(OC)cc3)cn2c1N(CC)CCN(C)C | -0.4 | -10 | -0.1% | -2 | -4.4 | -8
Clc1ccc(C2CC(c3ccco3)n3ncnc3N2)cc1Cl (stereo not given) | 2.2 | -25 | 0.1% | -3 | -4.3 | -3
Cc1ccccc1OCC(=O)Nc1ccc([N+](=O)[O-])cc1 | -0.5 | -1 | 2.2% | -4 | 6.8 | 1
CC1CCCCC12NC(=O)N(CC(=O)c1ccc(Cl)s1)C2=O (stereo not given) | 0.1 | -6 | -0.2% | 1 | -5.1 | 12
CCOC(=O)C1(Cc2ccccc2)CCN(Cc2cnn(CC)c2)CC1 | 0.3 | -6 | 0.7% | 3 | 1.4 | -1
COc1c(C=O)c(CCN(C)C(=O)c2ccc(F)cc2)cc2c1OCO2 | -0.6 | -4 | -1.7% | 9 | -5.0 | 14
CN1CCN(C(=O)c2ccc3c(=O)n(-c4ccc(F)cc4)c(=S)[nH]c3c2)CC1 | 0.2 | -9 | 0.1% | 12 | -0.4 | -2
